Screening results (PubChem BioAssay)
TRPML1 agonist: activates the human TRPML1 channel | TRPML1-expressing cells, Ca2+ dye fluorescence, FDSS; host cell line not named in the record; reference of the full effect not given here | 410,000 tested, 0.12% active | activation, % (no concentration beside the values) | AID 624414 | Q9GZU1; in the data active = activation above about 50%; inconclusive = about 30% to 50%; inactive = below about 30%; note: 0% is about no effect; the text of the record puts the active cut at 80%
Target sequence (Q9GZU1 whole entry, looked up): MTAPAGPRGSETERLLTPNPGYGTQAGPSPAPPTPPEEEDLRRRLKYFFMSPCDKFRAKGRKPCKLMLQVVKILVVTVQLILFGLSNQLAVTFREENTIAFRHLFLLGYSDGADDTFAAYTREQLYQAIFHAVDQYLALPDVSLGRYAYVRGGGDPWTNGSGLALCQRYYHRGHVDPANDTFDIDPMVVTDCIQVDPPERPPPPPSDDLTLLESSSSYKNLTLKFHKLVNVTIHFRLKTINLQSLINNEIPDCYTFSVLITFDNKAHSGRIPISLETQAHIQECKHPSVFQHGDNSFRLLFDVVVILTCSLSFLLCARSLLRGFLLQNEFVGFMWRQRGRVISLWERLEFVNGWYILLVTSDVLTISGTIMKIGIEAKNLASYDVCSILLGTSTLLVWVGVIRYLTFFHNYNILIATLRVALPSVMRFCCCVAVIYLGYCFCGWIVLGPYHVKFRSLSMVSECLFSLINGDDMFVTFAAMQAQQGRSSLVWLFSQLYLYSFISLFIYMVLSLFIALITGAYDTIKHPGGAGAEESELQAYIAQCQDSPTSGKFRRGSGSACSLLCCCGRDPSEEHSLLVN
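In this qHTS format, compounds were pin-transferred onto Ca8-dye-loaded TRPML1-DL cells induced with Tet overnight, and intracellular Ca2+ fluorescence was recorded kinetically for 110 s after a 10 s baseline. A subsequent 4uM final 54-4 (EC80) addition followed by a second 110 s read served as the antagonist phase.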
Six1-Eya2 blk: blocks human Six1 binding to Eya2 | 360,000 tested, 0.56% active | activity change, % (concentration not given with the values) | Q15475+O00167 | AID 651725 | AlphaScreen GST-Six1/His-Eya2 binding, biochemical; active compounds read low; control for the full effect not named in the record; in the data active = activity change below about -65%; inconclusive = about -30% to -65%; inactive = above about -30%; note: % is set by controls: 0 for no effect and ±100 for the full control effect
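AlphaScreen luminescence read after one hour at 37 °C in darkness. Pin-transferred compounds met GST-Six1 and His-Eya2 protein (5X stock 250 nM/500 nM) plus glutathione donor and Ni-chelate acceptor beads (5X, 50 ug/mL).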
PINK1 expr mod: changes PINK1 expression | Potency, µM (doses to about 76.6 µM), for the others: at the highest dose activation (PINK1 increase), most hits filed as activators | PINK1 immunofluorescence, high-content cytometry, 24 h | 410,000 tested, 0.2% active | AID 624263; active = well fitted activation curve with a large enough effect; inconclusive = small, poorly fitted or top-dose-only effect; inactive = flat fitted curve, though single readings scatter; cell line not stated here;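 note: potency is the fitted concentration of half-maximal effect; % of control where 0% means no effect; nearly all actives have a fitted effect of over 65% in size; a mitochondrial uncoupler was the plate control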
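Measures PINK1 amount and localization on or inside mitochondria by immunofluorescence. Stable cells get compounds at 5 concentrations for 24 hours before fixation and staining; CCCP controls included.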
D2 ag: human D2 receptor agonism in beta-arrestin assay | activation, % (concentration not given with the values) | DiscoveRx PathHunter D2 beta-arrestin, luminescence, 90 min; 100% = 57 uM dopamine signal | 360,000 tested, 0.084% active | AID 624465; in the data active = activation above about 40%; inconclusive = about 15% to 40%; inactive = below about 15%; note: compound concentration not given in the record; the text of the record calls up to 30% inactive
Target sequence (P14416 whole entry, looked up): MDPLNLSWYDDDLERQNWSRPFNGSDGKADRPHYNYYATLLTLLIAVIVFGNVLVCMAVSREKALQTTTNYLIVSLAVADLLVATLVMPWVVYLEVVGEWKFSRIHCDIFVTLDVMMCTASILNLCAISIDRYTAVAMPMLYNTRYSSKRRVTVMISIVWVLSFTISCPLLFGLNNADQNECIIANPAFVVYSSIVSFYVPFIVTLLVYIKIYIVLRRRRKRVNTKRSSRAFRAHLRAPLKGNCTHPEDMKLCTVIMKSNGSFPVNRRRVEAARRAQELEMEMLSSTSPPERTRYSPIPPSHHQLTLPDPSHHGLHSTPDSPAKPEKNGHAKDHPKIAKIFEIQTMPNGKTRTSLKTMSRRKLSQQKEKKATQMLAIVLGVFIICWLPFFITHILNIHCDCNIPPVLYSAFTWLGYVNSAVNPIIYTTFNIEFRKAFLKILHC
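Agonist mode: compounds alone added to overnight-plated D2 PathHunter cells for 90 min at 37 C, with 57 uM final dopamine (EC100) defining full response. Beta-arrestin recruitment detected by chemiluminescent reagent, read after 1 h at ambient temperature.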
TRPML1 inh: human mucolipin-1 channel inhibition | Q9GZU1 | TRPML1-inducible cells, Ca2+ dye fluorescence, FDSS; active compounds read low; inhibition of EC80 agonist-evoked calcium signal | activity change, negative = inhibition, % (test concentration not listed) | 390,000 tested, 0.02% active | AID 624415; in the data active means activity change below about -50%; inconclusive means about -30% to -50%; inactive means above about -30%;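 note: stimulus is agonist 54-4 at its EC80 concentration; % is set by controls: 0 for no effect and ±100 for the full control effect; compound concentration not given in the record; the text of the record puts the active cut at -80%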
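Calcium fluorescence in TRPML1-DL cells induced overnight with Tet: a 110 s read after compound pin addition, then a 110 s antagonist read after challenge with 54-4 at 4 uM final (EC80).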
D2 potentiator: potentiates the human D2 dopamine receptor allosterically; P14416; DiscoveRx D2 beta-arrestin cells, luminescence, 90 min; 100% = 57 uM dopamine signal; potentiation, % (concentration not given with the values); 360,000 tested, 0.23% active; AID 624464; active = potentiation of 50% or more; inconclusive = 30% to 50%; inactive = 30% or less;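 note: compound concentration not given in the record; tested on top of an EC20 dose of dopamine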
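PathHunter beta-arrestin assay in DiscoveRx D2 cells. Compounds were added with an EC20 of dopamine (50 nM final) for 90 min at 37 deg C. Luminescence was read 1 h after detection reagent, with 57 uM dopamine as the EC100 control.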
Starred values were filed as active, the others as inactive; [ ] = dose if it differs, or a comment.

COc1ccc(CNCCSc2nnnn2-c2ccccc2)cc1 was read as TRPML1 agonist 0.9, PINK1 expr mod 0.3% and TRPML1 inh 5.6.
For CCOc1cc(C(=O)O)ccc1OCCOc1ccccc1 the results were TRPML1 agonist 0.2, Six1-Eya2 blk -14.9, PINK1 expr mod 0.2%, D2 ag 2.2, TRPML1 inh -20.5 and D2 potentiator -8.6.
`O=C(O)Cn1cc(F)c(=O)[nH]c1=O` gave Six1-Eya2 blk -6.6, PINK1 expr mod -0.8%, D2 ag -5.1 and D2 potentiator -26.6.
Screening Cc1ccc2[nH]c3c(c2c1)CNCC3 returned TRPML1 agonist 0.9, Six1-Eya2 blk 0.1, PINK1 expr mod 2.3%, D2 ag 0.0, TRPML1 inh 30.1 and D2 potentiator -22.2.
`COc1ccc(C2/C=C\CN(CC(C)C)CC(=O)N2Cc2cccc(F)c2)cc1` (configuration not stated) gave TRPML1 agonist 0.8, Six1-Eya2 blk -8.5, PINK1 expr mod 5.7%, D2 ag -0.2, TRPML1 inh 54.8 and D2 potentiator -6.6.
`C[C@@H](C(=O)Nc1ccc(SC(F)F)cc1)N1C(=O)C2CCCCC2C1=O` (some centres not stated) gave TRPML1 agonist 0.0, Six1-Eya2 blk 0.9, PINK1 expr mod 1.8%, D2 ag 0.5, TRPML1 inh 6.6 and D2 potentiator -2.7.
Screening CC1=C(c2ccc(C(C)C)cc2)S(=O)(=O)N=C1N1CCC(C(=O)NCCc2ccco2)CC1 returned TRPML1 agonist 3.2, PINK1 expr mod 3.4% and TRPML1 inh -18.9.
CCOc1cc(-c2nnc(SCC(=O)NCc3ccc(C)cc3)nc2-c2ccc(OC)c(OCC)c2)ccc1OC was read as TRPML1 agonist 0.8, PINK1 expr mod 1.8% and TRPML1 inh 6.4.
FC(F)(F)c1ccc(Cl)c(NC(=S)N/N=C/c2ccccc2C(F)(F)F)c1 was read as TRPML1 agonist 1.5, Six1-Eya2 blk 14.7, PINK1 expr mod 1.4%, D2 ag -11.0, TRPML1 inh 18.9 and D2 potentiator -33.5.
Screening COc1ccc(CCN2CC(C(=O)N(C)Cc3ccccc3OC)CCC2=O)cc1 (configuration not stated) returned TRPML1 agonist 1.6, Six1-Eya2 blk 0.8, PINK1 expr mod -1.3%, D2 ag -2.8, TRPML1 inh 4.1 and D2 potentiator -6.5.
`COc1ccccc1NC(=O)CCC(=O)OCc1ccc(Br)cc1` gave TRPML1 agonist 0.6, Six1-Eya2 blk 9.4, PINK1 expr mod 0.7%, D2 ag -2.7, TRPML1 inh -3.2 and D2 potentiator -3.6.
`CCNS(=O)(=O)c1ccc(NC(=O)c2ccccc2)cc1` gave TRPML1 agonist -0.2, Six1-Eya2 blk 0.0, PINK1 expr mod 4.1%[38.3 µM], D2 ag -3.0, TRPML1 inh 0.2 and D2 potentiator -8.0.
For CC1CN(C(=O)COC(=O)Cc2c(Cl)cccc2Cl)CC(C)O1 (configuration not stated) the results were TRPML1 agonist 0.3, Six1-Eya2 blk 14.1, PINK1 expr mod -0.7%, D2 ag 2.1, TRPML1 inh -1.8 and D2 potentiator -5.7.
C=C(C)CN(CC)C(=O)CC1C(=O)NCCN1C (configuration not stated) was read as TRPML1 agonist -0.2, Six1-Eya2 blk 7.4, PINK1 expr mod 0.2%, D2 ag 0.3, TRPML1 inh -9.4 and D2 potentiator -1.4.
COCCSc1nnc(NC(=O)COC)s1 was read as TRPML1 agonist -0.4, Six1-Eya2 blk 0.0, PINK1 expr mod 12.8%[38.3 µM], D2 ag -3.8, TRPML1 inh 11.4 and D2 potentiator -2.7.
For CC(=O)Nc1ccc(NC(=O)c2ccccc2CCc2ccccc2)cc1 the results were TRPML1 agonist 0.1, Six1-Eya2 blk 4.2, PINK1 expr mod 8.6%, D2 ag 4.0, TRPML1 inh 2.4 and D2 potentiator -0.7.
CC(CN(C)Cc1nc(Cc2cccc(C(F)(F)F)c2)no1)CN1CCCC1 (configuration not stated) was read as TRPML1 agonist -1.3, Six1-Eya2 blk -0.5, PINK1 expr mod -0.3%, D2 ag -6.5, TRPML1 inh -12.1 and D2 potentiator -9.6.
Screening CN1CCN(c2nc(Nc3ccc(F)cc3)nc(Nc3ccc(F)cc3)n2)CC1 returned TRPML1 agonist 0.8, Six1-Eya2 blk -20.2, PINK1 expr mod -2.7%, D2 ag -5.5, TRPML1 inh 10.3 and D2 potentiator -6.6.
`CC(C)(C)c1nc2ccccc2[nH]1` gave TRPML1 agonist 1.8, Six1-Eya2 blk 0.5, PINK1 expr mod -1.2%, D2 ag -1.2, TRPML1 inh 29.2 and D2 potentiator -15.5.
For NC(=O)c1nn(CC(=O)Nc2ccc3c(c2)OCO3)cc1[N+](=O)[O-] the results were TRPML1 agonist 0.1, Six1-Eya2 blk 26.0, PINK1 expr mod 0.4%, D2 ag -1.9, TRPML1 inh 31.7 and D2 potentiator -4.3.
For CCc1nn(C(CC)C(=O)NCc2cccc(OC)c2OC)c(=O)c2cc3occc3n12 (configuration not stated) the results were TRPML1 agonist 1.1, Six1-Eya2 blk -0.4, PINK1 expr mod 0.1%, D2 ag -9.3, TRPML1 inh 3.5 and D2 potentiator -8.0.
O=C(COC(=O)c1cc[n+]([O-])cc1)Nc1cc([N+](=O)[O-])ccc1Cl was read as TRPML1 agonist -0.6, Six1-Eya2 blk 0.8, PINK1 expr mod 1.8%, D2 ag -2.4, TRPML1 inh 6.0 and D2 potentiator -16.7.
`O=C1NC(=Nc2ccccc2)SC1(CO)CO` gave TRPML1 agonist 0.6, Six1-Eya2 blk 0.1, PINK1 expr mod 0.0%, D2 ag -6.2, TRPML1 inh -3.2 and D2 potentiator -4.7.
For COc1ccc(S(=O)(=O)N2CCCCC2)cc1NC(=O)CCNC(=O)c1ccco1 the results were TRPML1 agonist -0.1, Six1-Eya2 blk 22.5, PINK1 expr mod 3.5%, D2 ag -7.6, TRPML1 inh -0.9 and D2 potentiator -32.7.
`CCN1CCN(C(=O)N(CC(=O)Nc2ccc(C(N)=O)cc2)S(=O)(=O)c2ccc(C)cc2)CC1` gave TRPML1 agonist -0.3, Six1-Eya2 blk 6.2, PINK1 expr mod 2.0%, D2 ag -4.1, TRPML1 inh -9.2 and D2 potentiator -11.0.
`Cc1ccc(C[n+]2cccc(-c3ccccc3)c2)c(C)c1` gave TRPML1 agonist -0.7, Six1-Eya2 blk -9.0, PINK1 expr mod 1.1%, D2 ag -2.5, TRPML1 inh 7.4 and D2 potentiator -21.3.
Screening CCOc1ccc(C(=O)OCC(=O)Nc2cc(C)on2)cc1OCC returned TRPML1 agonist 1.8, Six1-Eya2 blk 3.0, PINK1 expr mod 3.8%[38.3 µM], D2 ag -2.3, TRPML1 inh 54.4 and D2 potentiator -17.7.
CCOc1ccc(Nc2nc3ccccc3c3nnc(CC)n23)cc1 was read as TRPML1 agonist -1.4, PINK1 expr mod 2.6% and TRPML1 inh -2.3.
Nc1c(C(=O)NC23CC4CC(CC(C4)C2)C3)sc2nc3c(c(C(F)(F)F)c12)CCC3 was read as TRPML1 agonist -0.1, Six1-Eya2 blk 6.7, PINK1 expr mod 3.2%[38.3 µM], D2 ag 0.3, TRPML1 inh 12.1 and D2 potentiator -8.0.
For Cc1ccc(C)n1-c1ccc(N2CCOCC2)c([N+](=O)[O-])c1 the results were TRPML1 agonist 1.2, Six1-Eya2 blk -6.1, PINK1 expr mod -3.8%, D2 ag -3.1, TRPML1 inh 12.6 and D2 potentiator -3.7.
For CCc1sc(N(C(=O)Cc2ccccc2)c2ccccc2)nc1-c1ccccc1 the results were TRPML1 agonist 0.6, Six1-Eya2 blk 3.5, PINK1 expr mod 1.4%, D2 ag -2.6, TRPML1 inh -9.8 and D2 potentiator -14.1.
Cc1ccc2oc(=O)c3cnn(CC(=O)N4CCN(c5cccc(Cl)c5)CC4)c3c2c1 was read as TRPML1 agonist -0.7, PINK1 expr mod 0.5% and TRPML1 inh -12.3.
For Cc1cccc2cc(/C=N/NC(=O)c3ccccc3O)c(Cl)nc12 the results were TRPML1 agonist 2.8, Six1-Eya2 blk -2.8, PINK1 expr mod inconclusive, D2 ag -5.4, TRPML1 inh 1.6 and D2 potentiator -13.5.
For Cn1c(=O)[nH]c(=O)c2c1nc(N1CCOCC1)n2CCSc1nnnn1-c1ccccc1 the results were TRPML1 agonist -0.1, Six1-Eya2 blk -2.6, PINK1 expr mod -1.4%, D2 ag 5.8, TRPML1 inh 23.7 and D2 potentiator -7.3.
Screening Cc1ccc(C)n1-c1nnc(N2CCCC(C(=O)Nc3ccc(C(C)C)cc3)C2)s1 (configuration not stated) returned TRPML1 agonist -0.5, PINK1 expr mod 1.4% and TRPML1 inh 1.5.
For Cc1cn2c(=O)cc(COC(=O)COc3ccc(F)cc3)nc2s1 the results were TRPML1 agonist -0.1, PINK1 expr mod 1.8% and TRPML1 inh 19.4.
O=C1N[C@@H](c2ccccc2)COC(=O)[C@H](Cc2ccc(F)cc2)CC/C=C/C[C@@H]1CC(=O)N(CCO)Cc1ccccc1 was read as TRPML1 agonist 1.6, Six1-Eya2 blk -7.4, PINK1 expr mod 1.4%, D2 ag 1.2, TRPML1 inh 0.6 and D2 potentiator -0.4.
`Cc1ccc2nc(N(CCCN(C)C)C(=O)CS(=O)(=O)c3ccccc3)sc2c1` gave TRPML1 agonist -0.1, Six1-Eya2 blk 5.1, PINK1 expr mod 1.4%, D2 ag -4.0, TRPML1 inh -12.8 and D2 potentiator -38.5.
`Cc1ccc(OCC(=O)N2CCN(C(=O)CCC3CCCC3)CC2)cc1` gave TRPML1 agonist 0.4, Six1-Eya2 blk -2.7, PINK1 expr mod 0.4%, D2 ag -1.6, TRPML1 inh -2.4 and D2 potentiator -5.1.
For CCCS(=O)(=O)N1CCN(C2Cc3ccccc3C2)CC1 the results were TRPML1 agonist 1.0, Six1-Eya2 blk -1.5, PINK1 expr mod -0.1%, D2 ag -2.7, TRPML1 inh 1.2 and D2 potentiator -12.3.
`COC(=O)C1=C(C)N(Cc2ccccc2)C(=NCc2cc(OC)c(OC)c(OC)c2)N[C@H]1c1cccc(F)c1` gave TRPML1 agonist -0.6, Six1-Eya2 blk -8.0, PINK1 expr mod 0.7%, D2 ag -2.7, TRPML1 inh -18.5 and D2 potentiator -14.1.
`COc1ccc(OC)c(N(CC(=O)NCc2ccncc2)S(C)(=O)=O)c1` gave TRPML1 agonist -0.3, Six1-Eya2 blk 1.1, PINK1 expr mod 9.7%[38.3 µM], D2 ag -1.3, TRPML1 inh 0.1 and D2 potentiator 5.8.
For COc1cccc(CNCCSc2nnnn2C)c1OCc1ccc(Cl)cc1 the results were TRPML1 agonist -1.0, PINK1 expr mod -1.0% and TRPML1 inh 20.5.
`COc1ccc(CC(=O)OCC(=O)N2CCc3ccccc32)cc1OC` gave TRPML1 agonist 2.3, Six1-Eya2 blk 3.2, PINK1 expr mod -1.0%, D2 ag 1.6, TRPML1 inh 8.7 and D2 potentiator -1.8.
